Assay outcomes (PubChem)
HCMV NEC inh = inhibitors of HCMV UL50-UL53 nuclear egress complex interaction; HTRF UL50-UL53 interaction, normalized percent inhibition; inhibition, % (test concentration not listed); 190,000 tested, 0.15% active; AID 1918969;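 active = both replicates at 50% or more, plus weaker picks with an unusually low signal ratio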;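 also: stock transfer was 100 nL into about 20 µL; 0% = negative control wells and 100% = wells with untagged competitor protein; inactives centre near -12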
GIV Gai3 FP = GIV-Galpha-i interaction inhibition; P08753; Galpha-i3/FITC-GIV peptide fluorescence polarization, 90 min; hits give low values; scaled: aluminum fluoride 0%, vehicle 100%; percent of control (FP), % (no concentration beside the values); 210,000 tested, 0.42% active;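 active = replicate mean at 85% of control or lower, very high polarization wells dropped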;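 also: wells of about 15 µL received 100 nL stock; the first replicate is given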
Target sequence (P08753 whole entry, looked up): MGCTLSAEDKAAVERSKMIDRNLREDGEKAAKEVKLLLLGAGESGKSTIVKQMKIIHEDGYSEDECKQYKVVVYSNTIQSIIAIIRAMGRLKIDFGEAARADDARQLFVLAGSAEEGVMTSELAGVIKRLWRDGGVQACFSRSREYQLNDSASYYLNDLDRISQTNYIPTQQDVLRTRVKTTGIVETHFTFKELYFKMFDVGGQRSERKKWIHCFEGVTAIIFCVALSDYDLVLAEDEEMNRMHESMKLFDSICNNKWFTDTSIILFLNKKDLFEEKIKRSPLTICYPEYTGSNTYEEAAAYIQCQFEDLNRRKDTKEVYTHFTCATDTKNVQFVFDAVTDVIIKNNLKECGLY
Sa growth 42C = inhibitors of Staphylococcus aureus growth at 42 °C; S. aureus RN4220 growth, OD600, 20 h; hits give low values; relative growth, % (concentration not given with the values); 170,000 tested, 0.53% active; AID 720641;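 active = growth at 42 °C up to 50% and 20 or more points under that at 30 °C, or under 10% at both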;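 also: 300 nL library stock went into each well; scaled to the means of positive and negative controls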
Sa growth 42C second temp = further read-out of Sa growth 42C, marked with its call; relative growth, %; measured here: growth at 30 °C;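 optical density after 20 h as mean of two plates; 100% = untreated growth and lower means inhibition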
* marks the source's active call; other numbers are inactive results; . = not tested or not shown; & = joins results of further samples.

mol	HCMV NEC inh	GIV Gai3 FP	Sa growth 42C	Sa growth 42C second temp
COc1ccc(C(=O)OCC(=O)N2CCCC2=O)c(OC)c1	-9	.	101	89
CCN(CC)P1(=O)OC(c2cc(OC)c(OC)c(OC)c2)=Nc2c1c(C)nn2-c1ccccc1 (configuration not stated)	-17	.	96	96
COc1ccc(N2C(=O)CSC23C(=O)N(CC(=O)NCCc2ccccc2)c2ccccc23)cc1 (configuration not stated)	.	108	118	87
O=C(CN1C(=O)CCc2cc(Br)ccc21)N1CCN(c2ccccn2)CC1	4	106	.	.
CC1CC2(C)CC(C)C1(COC(=O)Nc1ccccc1)CO2 (configuration not stated)	-28	101	114	102
CNc1nc2cccnc2s1	-7	100	104	90
C=Cc1ccc(C=C)cc1	-11	105	86	61
O=c1c2ccccc2nnn1CN1CCCC1c1ccc2c(c1)OCCCO2 (configuration not stated)	-8	.	84	102
CCCN1CCN(CCNC(=O)Nc2ccc(OC)cc2OC)CC1	-33	100	85	85
COc1cccc(C(=O)NCC(c2ccc(N(C)C)cc2)N2CCc3ccccc32)c1OC (configuration not stated)	.	96	99	80
CCc1cccc(C)c1NC(=O)Cn1ccn(-c2cccc(OC)c2)c(=O)c1=O	-28	97	120	97
Cn1c(=O)n(C/C=C/c2ccccc2)c(=O)c2c1nc1n2CCN1c1ccc(F)cc1	.	105	109	99
CCOC(=O)c1cc(-c2ccccc2)n(CC(=O)NCc2ccccc2)c1C	.	98	140	83
O=C(Nc1ccc(N2CCN(Cc3ccccc3Cl)CC2)cc1)c1ccco1	-14	103	100	96
Cc1ccc(C(=O)c2oc3ccc(Cl)cc3c2N)cc1	8	106	.	.
CCN(CC)C(=O)/C=C/c1cccc2ccccc12	-54	98	87	95
CN(c1ccc(O)cc1)c1nc(O)c(C2=c3ccccc3=NC2=O)s1	-9	101	85	95
CCc1nnc(NC(=O)COc2ccccc2-c2nc(C(C)C)no2)s1	-19	93	.	.
COC(=O)c1ccc(NC(=O)CSc2n[nH]c(-c3ccccc3)n2)cc1	.	106	98	87
O=C1C(=O)N(C2CCN(C(=O)c3ccc(Cl)cc3)CC2)CCN1Cc1ccc(F)cc1	-10	100&101	88	84

Some of these compounds in order of the Sa growth 42C value, low to high.
| Structure | GIV Gai3 FP | Sa growth 42C | Sa growth 42C second temp |
| --- | --- | --- | --- |
| CCCN1CCN(CCNC(=O)Nc2ccc(OC)cc2OC)CC1 | 100 | 85 | 85 |
| COc1cccc(C(=O)NCC(c2ccc(N(C)C)cc2)N2CCc3ccccc32)c1OC (configuration not stated) | 96 | 99 | 80 |
| CC1CC2(C)CC(C)C1(COC(=O)Nc1ccccc1)CO2 (configuration not stated) | 101 | 114 | 102 |

(listing goes on)
mol	HCMV NEC inh	GIV Gai3 FP	Sa growth 42C	Sa growth 42C second temp
O=C(NCC12CC3CC(CC(C3)C1)C2)N1CCN(CCO)CC1	.	101	112	101
O=C(Nc1cccc(-c2cn3cccnc3n2)c1)c1ccccc1	-26	100	73	78
COc1ccc(OC)c(C2CC(c3ccc(OC)c(OC)c3)=NN2C(=O)CCCC(=O)O)c1 (configuration not stated)	-29	102	.	.
COc1ccc(C2=NN(C(=O)CCC(=O)O)C(c3cc(OC)ccc3OC)C2)cc1 (configuration not stated)	-6	106	.	.
CCn1c2c(c3cc(OCC(C)C)ccc31)CCCC2=O	4&22	107&103	85	69
O=C(OCc1nnc(-c2ccccc2)o1)[C@@H]1CCCN1S(=O)(=O)c1ccc(Cl)cc1	-22	.	115	89
O=C(CSc1nnc(-c2cccnc2)o1)N1CCCc2ccccc21	-4	102	.	.
Cc1cc(N2CCC(NS(=O)(=O)c3ccc(Cl)cc3)CC2)nc(C)n1	-26	103	93	74
c1ccc2c(OCc3nn[nH]n3)cccc2c1	-17	104	95	103
CC1=C(C(=O)N(C)C)C(c2ccc(Br)cc2)n2c(nc3ccccc32)N1 (configuration not stated)	.	101	105	95
Cc1ccccc1N=C1SCCCN1C(=O)c1ccc2c(c1)OCO2	-11	.	87	97
Cc1ccc(S(=O)(=O)NC(=NC2CCCCC2)c2ccccc2)cc1	.	103	98	75
N#Cc1ccccc1NC(=O)CN1C(=O)c2ccccc2C1=O	.	106	99	101
COc1ccc(C(=O)Oc2ccc3cc(-c4nc5ccccc5s4)c(=O)oc3c2)cc1	-16	117	.	.
Cc1ccc(OC(C)C(=O)NCC2(N3CCOCC3)CCCCC2)cc1C (configuration not stated)	-1	102	108	86
CCN1CCCC1CNc1ncnc2sc3c(c12)CCC3 (configuration not stated)	-1	.	94	100
Cc1cc(C)n(-c2ccc(C(=O)Oc3ccc4c(c3)OCO4)cc2)n1	6	.	93	98
Cc1ccccc1S(=O)(=O)Cc1ccc(C(=O)NCC2CCN(C(C)c3ccccc3)C2)o1 (configuration not stated)	5	107	92	84
CCOn1c(=O)c[n+]([O-])c2ccccc21	-32	127	.	.
CCN(CC)C(=O)C1c2ccccc2Oc2ccccc21	-18	.	90	93

Rewritten field by field: two of the compounds above.
CCOC(=O)c1cc(-c2ccccc2)n(CC(=O)NCc2ccccc2)c1C
- HCMV NEC inh = .
- GIV Gai3 FP = 98
- Sa growth 42C = 140
- Sa growth 42C second temp = 83

O=C(Nc1ccc(N2CCN(Cc3ccccc3Cl)CC2)cc1)c1ccco1
- HCMV NEC inh = -14
- GIV Gai3 FP = 103
- Sa growth 42C = 100
- Sa growth 42C second temp = 96

Later entries:
mol	HCMV NEC inh	GIV Gai3 FP	Sa growth 42C	Sa growth 42C second temp
Cc1nn(-c2ccccc2)c(Oc2ccc(F)cc2)c1/C=N/n1cnnc1	-28	.	73	91
O=C(CSc1nc2c(c(=O)n1CCc1ccccc1)SCC2)N1CCC(Cc2ccccc2)CC1	3	101	.	.
CCOC(=O)Cc1ccc(NC(=O)NCc2ccc3c(c2)CCN3C(=O)CC)cc1	.	103	96	87
O=C(c1ccccc1)C(Sc1nnc(-c2ccc3c(c2)OCO3)o1)c1ccccc1 (configuration not stated)	-36	.	78	78
NC(=O)Cn1cnc2c(cnn2-c2ccc(Cl)cc2)c1=O	2	95	105	93
Cc1cc(NC(=O)CSc2nnc(Cc3cccn3C)n2C)no1	3	110	95	98
Cc1ccc(NC(=O)Cn2c3ccccc3c(=O)c3cc([N+](=O)[O-])ccc32)c(Br)c1	0	107	.	.
CCCCN(CCCNC(=O)CN1N=C(c2ccccc2)CCC1=O)c1ccccc1	.	96	98	92
c1ccc(-c2nonc2-c2ccccc2)cc1	-7	97	117	112
CCS(=O)(=O)N1CCc2cc(C(=O)Cn3ncc(Cl)c(Cl)c3=O)ccc21	-51	.	70	89
O=C(OCc1cc2c(cc1Br)OCO2)c1cnccn1	-14	.	95	86
COCCOc1nc2ccccc2nc1C	-16	97	100	105
CCOc1ccc(-c2nc(SCC(=O)c3ccccc3)n[nH]2)cc1	9	104	96	104
N#Cc1ccc(OCc2nnc3n2CCCCC3)cc1	-36	.	85	84
COc1ccc(C(=O)Nc2c(C(=O)c3ccc(F)cc3)oc3ccccc23)cc1	5	108	106	100
CN1/C(=C\C(=O)CSCCO)C(C)(C)c2ccccc21	-48	.	-0.5*	-0.1*
Oc1ccc2cc(Br)ccc2c1	10	104	88	48
Cc1ccsc1C(=O)OCC(=O)NC1CC1	-22	.	115	87
CCOC(=O)c1cc(C(=O)Nc2cc(OC)ccc2OC)c(=O)[nH]c1C	6	105	.	.
CC(C)(C)c1oc(C(=O)O)cc1COCC(F)(F)F	-10	106	104	109

Gathered by group: the compounds so far with a furan ring, fused or not
mol	HCMV NEC inh	GIV Gai3 FP	Sa growth 42C	Sa growth 42C second temp
O=C(Nc1ccc(N2CCN(Cc3ccccc3Cl)CC2)cc1)c1ccco1	-14	103	100	96
Cc1ccc(C(=O)c2oc3ccc(Cl)cc3c2N)cc1	8	106	.	.
Cc1ccccc1S(=O)(=O)Cc1ccc(C(=O)NCC2CCN(C(C)c3ccccc3)C2)o1 (configuration not stated)	5	107	92	84
COc1ccc(C(=O)Nc2c(C(=O)c3ccc(F)cc3)oc3ccccc23)cc1	5	108	106	100
CC(C)(C)c1oc(C(=O)O)cc1COCC(F)(F)F	-10	106	104	109

(list continues)
mol	HCMV NEC inh	GIV Gai3 FP	Sa growth 42C	Sa growth 42C second temp
O=c1[nH]c(C2CCN(S(=O)(=O)Cc3ccccc3)CC2)nc2c1nnn2Cc1cccc(Cl)c1	-18	103	97	75
Cn1c(=O)c2c(c3ccccc31)OC(=O)CC2c1ccc(C(F)(F)F)cc1 (configuration not stated)	0	104	102	92
Cn1nc(Oc2nc(N3CCCCC3)nc(N3CCCCC3)n2)ccc1=O	2	98	94	91
CCN(CC)C(=O)CSc1nc(-c2ccco2)cc(C(F)(F)F)c1C#N	-21	102	105	98
N#Cc1ccccc1Cn1cnc2nc3c(cc2c1=O)CCCC3	.	101	80	83
COc1cc2c(cc1OC)C(COc1ccc3c(C)cc(=O)oc3c1)N(C(=O)c1cccc(OC)c1OC)CC2 (configuration not stated)	-10	104	104	90
CCn1c(SCc2nc3cc(OC)c(OC)cc3c(=O)[nH]2)nc2ccccc21	-21	.	95	99
CN=C(NO)c1c(Cl)cccc1Cl	-1	96	116	81
Cc1c(NC(=O)CN(c2cccc(Cl)c2Cl)S(=O)(=O)c2ccccc2)c(=O)n(-c2ccccc2)n1C	-4	101	.	.
CC(C)n1nccc1NC(=NC1CC1)c1ccccc1	-33	.	71	85
CCCCN(CCCC)CCNC(=O)Cn1nc(CC)n2c(cc3sccc32)c1=O	7	106	97	95
COc1ccc(-c2nc(NCc3ccccc3)c3ccccc3n2)cc1OC	0	108	.	.
CCCCc1ccc(-n2nc3cc(Cl)c(NC(=O)c4ccc(OC)cc4)cc3n2)cc1	-32	107	79	94
COc1cc(OC)cc(C(=O)OCCN2C(=O)c3cccc4c(N5CCCCC5)ccc(c34)C2=O)c1	-5	109	.	.
CCOC(=O)c1cc2c(c(CSc3nc4ccccc4c(=O)n3Cc3cccs3)c1)OCOC2	.	99	95	80
COc1ccccc1-n1c(SC)nc(O)cc1=O	-20	101	97	89
CN(C)c1ccc(CNC(=O)C2CCN(S(=O)(=O)c3ccc4c(ccn4C)c3)CC2)cc1	.	100	74	83
Cc1cccc(C)c1NC(=O)CBr	-14	97	.	.
O=C(O)CCCC(=O)Nc1ccn(-c2ccccc2)n1	-18	104	89	89
CCOC(=O)N1CCN(C(=O)c2ccc3c(=O)[nH]c4c(C(=O)NC(C)C)sc(=S)n4c3c2)CC1	-21	112	70	74

Additional structures.
mol	HCMV NEC inh	GIV Gai3 FP	Sa growth 42C	Sa growth 42C second temp
O=C(CN1CCOCC1)Nc1nc(-c2ccc3c(c2)CCN3S(=O)(=O)c2ccccc2)cs1	0	100	111	79
O=c1c2ccccc2nc2n1CCCN2	6	104	100	93
O=C1ON=C(c2ccccc2)/C1=C\c1ccc2c(c1)OCO2	.	93	108	88
COC(=O)c1ccc(COC(=O)c2ccc(-n3cnnn3)cc2)o1	-25	.	61	83
Cc1ccc(C)c(NC(=O)Cn2ncc3c([nH]c4ccccc43)c2=O)c1	.	103	81	81
Cc1cc(F)ccc1NC1(c2ccccc2)C(=O)c2ccccc2C1=O	.	97	100	84
Cc1ccc(-c2cc(C(F)(F)F)n3nc(C(=O)NCCCN4CCOCC4)c(Cl)c3n2)cc1	-71	94	.	.
Cc1c(C(=O)N(Cc2cccs2)C2CCCC2)sc2nc3n(c(=O)c12)CCCCC3	2	106	104	93
CCCn1c(C)ccc(-c2noc(CCC(=O)NCCc3ccccc3)n2)c1=O	-28	106	.	.
COc1ccccc1NC(=O)CSc1nc2ccccc2n2c(C)nnc12	-4	109	.	.
COc1cc2c(cc1OC)CN(C(=O)c1cc(=O)c3ccccc3o1)CC2	-6	.	109	109
CCn1c(=O)c(=O)n(CC)c2cc(N3CCCCC3)c(NC(=O)CN3CCCC3)cc21	-31	100	.	.

Single records, from the list above:
Results for COc1cc2c(cc1OC)CN(C(=O)c1cc(=O)c3ccccc3o1)CC2 → HCMV NEC inh = -6; GIV Gai3 FP = .; Sa growth 42C = 109; Sa growth 42C second temp = 109
Results for Cc1ccc(C)c(NC(=O)Cn2ncc3c([nH]c4ccccc43)c2=O)c1 → HCMV NEC inh = .; GIV Gai3 FP = 103; Sa growth 42C = 81; Sa growth 42C second temp = 81
